Source: PubChem BioAssay (several laboratories)
Vif A3G = HIV-1 Vif–A3G interaction blockers – biochemical, TR-FRET, GST-Vif 1-94, biotin-A3G peptide, dose response retest, primary screen (AID 1117319); TR-FRET GST-Vif / biotin-A3G peptide binding; higher % means a stronger effect; test concentration not given here; strong numbers were not always called active; one-dose inhibition, %; IC50 in µM for titrated hits; 260,000 compounds, 0.57% hits;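 active = above the screen mean plus three standard deviations and confirmed in dose response; inconclusive = results disagree or hit not tested in dose response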;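 note: Vif residues 1-94 fused to GST binding biotinylated APOBEC3G peptide 110-148; 0% = full assay without inhibitor and 100% = GST in place of GST-Vif; retest series ran down from 100 µM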
HNF4A DNA FP = change in binding of human HNF4 alpha to DNA | HNF4a-FITC DNA binding, fluorescence polarization, 1 h | activity change, % at 10 µM | 360,000 compounds, 0.3% hits; in the data active = activity change above about 30%, passing the limit was not always enough;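 note: controls were the assay level and a saturating level of protein; the project sought stronger binding though the title names inhibitors; some compounds called inactive have numbers as strong as hits; positive values seem to mean higher polarization but the record does not say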
UCH37 inh = inhibitors of human deubiquitinating enzyme UCH37; purified proteasome/UCH37, Ub-AMC cleavage fluorescence; inhibition, % (no concentration beside the values); AID 588478; 330,000 compounds, 0.33% hits; Q9Y5K5;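 active = mean of two replicates above 20%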;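 note: 0% = compound-free wells with enzyme and 100% = wells lacking proteasome; stock transfer was 100 nL into about 20 µL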
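System: Proteasome-associated human UCH37 deubiquitinase; Input: 0.15 nM proteasome in added enzyme buffer; Also added: Ub-AMC substrate from 1 µM stock; Incubation: 30 min compound-proteasome preincubation then 25 min substrate reaction, room temperature; Detection: fluorescence, ex 355 nm, em 460 nm; Read-out: % inhibition of Ub-AMC cleavage fluorescence; Benchmarks: no-proteasome and no-compound wells.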
Beta2AR agonist = human beta-2 adrenergic receptor agonism by FAP; P07550; Am2.2-beta2AR cells, FAP receptor internalization, flow cytometry; reference of the scale not given here; response, % (concentration not given with the values); 340,000 compounds, 0.43% hits;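 active = response above a set limit, near 3 SD of response in nonfluorescent compounds, cut at about 42% in these data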;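 note: stock transfer was 100 nL into about 11 µL; a reference agonist was the positive control; negative values mostly stem from fluorescent compounds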
Ecoli growth = blocks Escherichia coli growth. OD600, 23 h; stronger effect = lower value. OD600 absorbance (concentration not given with the values). 330,000 compounds, 0.21% hits. AID 1053175;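 active = OD600 absorbance below the run mean of sample wells minus 3.6 SD, in any replicate, cut at about 0.56 in these data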;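 note: stock transfer was 300 nL into about 60 µL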
A1 inh = inhibitors of the anti-apoptotic protein A1, read as caspase activation | MEF A1-2A-BIM cells, Caspase-Glo 3/7 luminescence, 3 h; percent of clofoctol response, vehicle zero | caspase activation, % (test concentration not listed) | 330,000 compounds, 0.066% hits;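 active = over half of replicate activation scores above 10%, or exactly half above 10 with the replicate mean above 10; inconclusive = replicate mean below 10 yet half the replicates above 10; inactive = over half of replicates below 10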;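 note: wells of about 30 µL received 50 nL stock; many hits fall short of the cut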
LANA-H2A inh = blocks KSHV LANA binding to histone H2A/H2B; inhibition, % (no concentration beside the values); 320,000 compounds, 0.6% hits; cell-free LANA-H2A/H2B peptide, fluorescence polarization; AID 2629; in the data active = inhibition mostly above about 10%, no sharp cut-off; inactive = mostly below about 6.7%;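 note: stock transfer was 7.5 nL into about 10 µL; 0% = median of vehicle wells and 100% = median of positive control wells; one replicate is shown; the record names a cut of 25% in any replicate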
Target sequence (Q9QR71 whole entry, looked up): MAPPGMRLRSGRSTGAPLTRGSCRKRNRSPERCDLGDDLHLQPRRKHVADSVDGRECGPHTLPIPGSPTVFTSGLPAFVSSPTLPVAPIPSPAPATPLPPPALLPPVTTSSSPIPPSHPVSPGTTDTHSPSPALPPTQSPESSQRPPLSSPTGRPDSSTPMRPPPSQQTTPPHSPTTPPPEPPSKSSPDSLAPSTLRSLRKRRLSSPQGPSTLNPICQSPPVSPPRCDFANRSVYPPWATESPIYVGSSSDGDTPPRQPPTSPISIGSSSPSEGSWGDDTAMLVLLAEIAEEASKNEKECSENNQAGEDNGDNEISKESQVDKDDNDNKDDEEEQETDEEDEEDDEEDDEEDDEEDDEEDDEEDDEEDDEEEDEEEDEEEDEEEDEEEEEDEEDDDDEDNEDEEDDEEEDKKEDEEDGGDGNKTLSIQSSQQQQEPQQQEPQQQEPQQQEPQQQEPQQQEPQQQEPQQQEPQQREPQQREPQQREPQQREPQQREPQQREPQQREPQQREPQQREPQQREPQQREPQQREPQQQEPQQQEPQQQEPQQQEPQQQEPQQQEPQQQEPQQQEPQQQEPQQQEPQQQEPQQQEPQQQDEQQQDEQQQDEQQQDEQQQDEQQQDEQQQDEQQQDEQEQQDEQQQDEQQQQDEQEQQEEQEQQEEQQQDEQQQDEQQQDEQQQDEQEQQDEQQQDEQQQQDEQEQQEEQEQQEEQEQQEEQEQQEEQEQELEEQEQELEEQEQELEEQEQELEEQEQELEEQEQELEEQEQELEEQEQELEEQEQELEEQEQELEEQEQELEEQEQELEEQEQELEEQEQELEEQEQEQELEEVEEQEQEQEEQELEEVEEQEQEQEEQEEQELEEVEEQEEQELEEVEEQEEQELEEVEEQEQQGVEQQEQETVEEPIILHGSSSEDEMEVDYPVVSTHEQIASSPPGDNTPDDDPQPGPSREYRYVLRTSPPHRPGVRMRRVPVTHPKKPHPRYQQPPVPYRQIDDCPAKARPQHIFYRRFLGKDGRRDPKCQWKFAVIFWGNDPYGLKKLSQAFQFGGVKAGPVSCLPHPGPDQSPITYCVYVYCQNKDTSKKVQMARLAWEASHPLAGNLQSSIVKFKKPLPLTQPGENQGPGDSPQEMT
An asterisk follows results filed as active; ? = inconclusive; . = not tested or not shown. Rows are unselected (roughly 2.1% active in at least one column).

SMILES	Vif A3G	HNF4A DNA FP	UCH37 inh	Beta2AR agonist	Ecoli growth	A1 inh	LANA-H2A inh
O=C(Nc1ccc(F)cc1)c1nn(-c2ccccc2)c(=O)cc1Cl	11.1%	-1.5	6.8	3.0	0.657	.	.
COc1ccc(CCn2nnnc2CN2CCN(C(=O)c3ccco3)CC2)cc1OC	0.3%	-0.2	2.1	-2.5	0.68	0.1	10.8
COc1ccccc1N1C(=O)C2C3C=CC(C3)C2C1=O (stereo unspecified)	-2.7%	-1.5	-0.6	5.9	0.662	0.1	-6.1
CCOc1ccc(N2C(=O)CC(Sc3n[nH]c(-c4ccccc4)n3)C2=O)cc1 (stereo unspecified)	5.8%	-0.4	0.0	-2.3	0.688	-0.3	8.7
COC(=O)c1c(C)nn(-c2ccc(OC(F)(F)F)cc2)c1-c1snnc1C	-2.9%	0.0	0.8	6.2	0.651	-0.1	-6.5
COc1ccc(OC2C(=O)N(c3cc(C)ccc3C)C2c2ccc(OC)c(OC)c2)cc1 (stereo unspecified)	5.9%	2.0	1.9	-1.9	0.728	0.4	-2.4
CCOC(=O)/C(C#N)=C1\SS/C(=C(/C#N)C(=O)OCC)S1	?	.	.	.	.	-0.2	6.6
COc1ccc(C2Nc3ccccc3C(=O)N2Cc2ccccc2)cc1 (stereo unspecified)	.	-1.0	-141.9	1.3	0.626	-0.4	0.7
Cc1c(C=O)c(Cl)n(C)c(=O)c1C#N	.	5.2	21.3*	8.2	0.723	-0.3	-1.8
CCOc1cc(/C=C(\C#N)C(=O)NCC2CCCO2)ccc1O (stereo unspecified)	.	1.6	1.7	1.1	0.672	0.1	-6.9
Cc1ccc(/C=c2\sc3nc(-c4cccnc4)nn3c2=O)cc1	8.4%	0.5	.	4.7	.	-0.1	1.5
Cc1cc(C)cc(N2C(=O)CSC2c2cccs2)c1 (stereo unspecified)	1.1%	-1.4	6.7	6.9	0.74	-0.8	-2.3
CN(c1ccc(C(=O)N2CCN(Cc3ccc4c(c3)OCO4)CC2)cc1)S(=O)(=O)c1ccccc1	3.8%	-0.8	1.2	8.5	0.677	1.3	-0.7
CCCc1[nH]nc2c1C(c1ccsc1)C(C#N)=C(N)O2 (stereo unspecified)	-0.8%	-6.9	1.0	8.1	0.675	-0.4	6.4
O=C(CCS(=O)(=O)c1cc2c(cc1Cl)NC(=O)CO2)NCCc1ccccc1	.	-0.1	-0.5	4.6	0.712	0.7	7.1
CC1CC(C)CN(c2cc(=O)n(Cc3ccc(F)cc3)c(=O)[nH]2)C1 (stereo unspecified)	7.3%	0.1	5.4	-12.4	0.793	1.0	-2.7
O=C(Cc1ccccc1)Nn1cnc2ccccc21	-0.7%	1.6	3.9	6.1	0.666	0.1	1.9
O=C(CCNS(=O)(=O)c1ccc(Cl)cc1)N1CCN(c2ccccn2)CC1	.	1.3	-0.9	0.4	0.691	0.1	0.1
CC1(C)CC(=O)C2=C(C1)N(c1cccc(Cl)c1)C(=O)NC2(C(F)(F)F)C(F)(F)F	10.6%	-0.6	0.1	1.7	0.722	-0.5	-2.1
Cc1nc(N)sc1N=Nc1c(C)n(C)n(-c2ccccc2)c1=O	5.2%	6.1	14.8	7.2	0.669	1.4	-3.5
COc1ccc(C2c3cc(OC)c(OC)cc3CCN2S(C)(=O)=O)cc1OC (stereo unspecified)	.	-3.2	2.1	3.0	0.681	.	.
Cc1nc2sc(-c3ccccc3)cc2c(=O)n1/N=C/N(C)C	0.7%	1.2	.	-8.6	.	-3.4	0.2
CCS(=O)(=O)NCc1csc(-c2ccccc2)n1	-8.2%	0.9	2.0	-39.7	0.767	-2.0	-6.2
CCc1ccc(C(=O)NNC(=O)C2CCN(c3ncnc4sc(C)c(C)c34)CC2)cc1	-13.3%	-2.6	3.4	23.2	0.651	0.4	-5.0
O=C(C[C@@H]1C/C=C\CC[C@@H](Cc2ccc(F)cc2)C(=O)OC[C@@H]2CCCN2C1=O)NCCO	.	-0.4	2.3	9.4	.	-0.3	-1.5
Further compounds follow.
SMILES	Vif A3G	HNF4A DNA FP	UCH37 inh	Beta2AR agonist	Ecoli growth	A1 inh	LANA-H2A inh
Cc1noc(C)c1S(=O)(=O)N(CC(=O)N1CCCCCC1)c1ccc(C(C)C)cc1	6.1%	-0.3	0.8	-10.4	0.75	0.1	-2.7
O=C(NN=C1c2ccccc2-c2ccccc21)c1ccccc1Br	0.7%	2.9	1.2	-12.1	0.653	-0.3	0.9
O=C(NCc1nc(-c2ccc(C(F)(F)F)cc2)no1)c1cccs1	0.1%	0.3	-1.7	-7.5	0.621	0.8	-1.1
Cc1ccc(NC(=S)c2nc3ccccc3[nH]2)c(C)c1	.	1.0	-0.5	-9.4	0.715	-3.0	-2.1
CCc1ccccc1NC(=O)CSc1nnc(Cn2cnc3ccccc32)o1	27.2%	0.7	0.0	7.7	0.75	0.0	-11.5
CSc1ccc(S(=O)(=O)Nc2ccc3c(c2)NC(=O)CC3)cc1	-0.6%	3.5	-2.6	-13.2	0.655	0.9	-0.7
O=C(CSc1nnc(NC2CCCCC2)s1)NN1C(=O)NC2(CCCCC2)C1=O	.	2.4	4.0	5.4	0.713	-0.3	-1.9
CCN(C(=O)CSc1cc(-c2ccccc2)c2ccc(OC)cc2n1)C1CCS(=O)(=O)C1 (stereo unspecified)	-5.4%	1.4	1.6	-23.2	0.729	0.6	-2.8
N#Cc1ccc(C(=O)Nc2cc(S(=O)(=O)N3CCOCC3)ccc2N2CCCC2)cc1	.	-2.3	2.4	-2.7	0.636	0.6	4.1
O=C(O)C1C2C=CC(C2)C1C(=O)NCc1ccco1 (stereo unspecified)	4.0%	-6.5	-0.5	-2.2	0.709	0.5	1.5
O=C(C1CCN(S(=O)(=O)c2ccc(Br)s2)CC1)N1CCc2ccccc21	-5.5%	0.5	1.4	-4.6	0.788	-0.1	3.3
Cc1ccccc1Cn1nc(C)c(NC(=O)c2cc3n(n2)C(C(F)F)CC(C(F)F)N3)c1C (stereo unspecified)	-1.9%	2.5	-1.0	-1.2	0.712	1.1	-6.6
O=C(NC(=S)N1CCCCC1CO)c1cccs1 (stereo unspecified)	-3.7%	2.4	2.4	-2.5	0.699	-0.4	8.7
COc1ccc(-c2nc3ccc(C(=O)NCC(OC)OC)cc3nc2-c2ccc(OC)c(OC)c2)cc1OC	-8.8%	-1.2	0.5	-3.9	0.692	-0.3	-13.1
CC(C)CCc1c(O)nc(SCC(C)C)[nH]c1=O	-12.8%	-5.7	-1.3	1.8	0.732	0.3	1.3
Clc1ccc(-c2ncc3ccccn23)cc1	2.8%	3.3	-94.7	-13.8	0.672	0.4	-1.9
Cc1nc(/C(=N/O)C(N)=O)cs1	11.1%	-0.8	.	2.0	.	0.7	-0.8
Cc1c(C)n(C)c2ccc([N+](=O)[O-])cc12	-6.3%	-1.5	2.1	-2.6	0.687	0.5	-1.0
CCN(CC)CC(C)OC(=O)c1cc(OC)c(OC)c(OC)c1 (stereo unspecified)	5.4%	3.9	-3.7	0.6	0.659	-0.4	-3.8
S=c1[nH]c2ccccc2n2cccc12	-21.9%	-2.0	10.7	-2.5	0.669	-0.4	4.7
Cc1ccc(NC(=O)CN(c2ccccc2)S(=O)(=O)N(C)C)cc1C	1.0%	1.3	4.0	3.5	0.716	0.4	-5.6
C=CCn1c(SCC(=O)Nc2cc(NC(C)=O)ccc2OC)nnc1-c1ccccn1	10.4%	3.1	6.9	-4.5	0.676	-0.9	-6.0
CC(C)(C)OC(=O)N1CCC(c2c(C(=O)N3CCN(C(=O)c4ccco4)CC3)cnn2-c2cccc(Cl)c2)CC1	.	3.2	2.6	4.5	0.704	1.1	0.3
CCN1C(=O)CCC(C(=O)O)C1c1ccc(OC)cc1 (stereo unspecified)	-6.0%	-4.6	7.9	-2.2	0.656	-0.6	1.6
CSc1ccccc1NC(=O)CSCc1ccc(Br)cc1	3.9%	-6.8	-0.6	-5.2	0.628	-0.2	3.1
The list goes on:
SMILES	Vif A3G	HNF4A DNA FP	UCH37 inh	Beta2AR agonist	Ecoli growth	A1 inh	LANA-H2A inh
COc1ccccc1NC(=O)c1ccccc1NC(=O)c1ccccn1	-5.6%	2.4	-11.0	-5.8	0.643	.	.
Cc1ccc(C(=O)C2CCN(CC(=O)Nc3nc(C)cs3)CC2)cc1	0.0%	-0.9	3.7	-3.2	0.632	1.1	-2.7
O=C(O)c1cc2cc(Oc3ccccc3)ccc2[nH]1	7.2%	-0.2	-4.5	-7.2	0.624	-0.3	-4.3
O=C(NCCNC(=O)c1ccccn1)c1ccccc1	.	0.4	1.6	4.3	0.704	0.6	2.8
Cc1ccc(NC(=O)c2ccc(Cl)nc2)cc1	16.1%	-1.4	-0.2	-1.0	0.614	-1.1	-3.5
Cc1cccc(N(C(=O)Cn2nnc(-c3ccc(C)o3)n2)C(C(=O)NC2CCCC2)c2ccncc2)c1 (stereo unspecified)	-0.5%	-2.7	1.8	4.2	0.631	0.4	-1.5
Cc1cc(C)n(/N=C/c2cccc(O)c2)c(=O)c1C(N)=O	1.9%	0.0	.	-1.4	.	0.3	-1.7
O=c1cc(N2CCC(Cc3ccccc3)CC2)[nH]c(=O)n1C1CCCCC1	5.3%	-1.0	-1.8	-2.6	0.745	-0.2	3.6
COCCCNC(=O)CC1C[C@H](C(=O)N2CCCCC2)[C@@]2(CCc3ccccc3)c3[nH]c4ccc(OC)cc4c3CCN2C1=O (stereo partly specified)	0.5%	-1.9	6.2	3.2	0.707	.	.
O=C(O)CC/C(=N/NC(=O)c1cccs1)c1ccccc1	.	-2.1	.	-5.7	.	0.4	2.1
COC(=O)CNC(=O)/C=C/c1ccc(OC)cc1	-2.1%	-4.3	5.5	-5.5	0.72	-0.3	-0.1
CCC(NC(=S)NCc1ccc(F)cc1)c1ccc(C(C)C)cc1 (stereo unspecified)	-4.7%	-0.8	1.3	16.6	0.732	0.1	-0.6
CCc1n[nH]c(=S)n1/N=C/c1c[nH]c2ccc(Br)cc12	-11.5%	-1.1	.	11.0	.	0.2	4.2
O=C(Nc1cc(S(=O)(=O)N2CCOCC2)ccc1Cl)c1cc(=O)c2ccccc2o1	-1.3%	2.8	-2.2	6.1	0.712	1.5	1.4
COc1ccc(OC)c(Nc2nc(-c3sc(N)nc3C)cs2)c1	7.5%	11.4	3.4	1.0	0.687	-0.5	-0.9
CN(C(=O)COc1ccc(Cl)cc1Cl)C1(C)CCS(=O)(=O)C1 (stereo unspecified)	-7.3%	0.9	1.5	-2.7	0.671	-0.6	4.2
CCN(CC)CCN(C(=O)CCS(=O)(=O)c1ccccc1)c1nc2c(C)cc(C)cc2s1	.	-4.2	3.9	0.7	0.675	1.4	-0.4
CCOC(=O)C1CCN(Cc2cc(=O)oc3cc(C)c(Cl)cc23)CC1	-1.8%	-1.0	2.6	0.9	0.681	-0.7	-2.8
COc1ccc(C(=O)CC(=O)C(=O)NCCc2cccc(C)c2)cc1	14.9%	4.7	9.8	10.9	0.71	0.5	-2.1
CC1=Nc2cccc3cccc(c23)N1C	?	0.2	9.2	-7.4	0.627	-1.0	2.6
O=C(Nc1cccc([N+](=O)[O-])c1)c1ccc2c(c1)OCCO2	.	-2.2	1.5	2.5	0.671	-9.1	-2.6
COc1ccc(CCNC(=O)c2c(O)c3cccc4c3n(c2=O)CC4)cc1	-37.3%	1.1	-3.6	-1.9	0.698	-3.5	1.9
CCOc1ccccc1Nc1nc(-c2sc(NC(=O)c3ccc([N+](=O)[O-])cc3)nc2C)cs1	12.6%	.	.	.	.	-2.2	1.2
